gsp agonist: qHTS for Agonist of gsp, the Etiologic Mutation Responsible for Fibrous Dysplasia/McCune-Albright Syndrome: qHTS; gsp mutant cells, cAMP HTRF, 30 min; control for the full effect not named in the record; Potency, µM (top dose mostly 76.9 µM), inactives show at the top dose activation (cAMP increase), usual class: activators; hit rate 0.13% among 340,000; AID 624287, 2012; active = well fitted activation curve with a large enough effect; inconclusive = small, poorly fitted or top-dose-only effect, or another doubt; inactive = no such curve, though single readings can be large or run the other way; cell line not stated here;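 also: phosphodiesterase inhibitor Ro 20-1724 added with compounds to block cAMP breakdown; potency is read from the fitted curve at half-maximal effect; nearly all actives have a fitted effect of over 60% in size; about a fifth of the inactives were tested at one dose only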
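Cells stably selected in G418 were plated at 2000/well, grown 16-24 hr, then given compounds in DMSO with the PDE inhibitor […] (300 uM solution added) for 30 min at 37C; cAMP was read by HTRF.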
ClpP mod: qHTS Assay for Activators of ClpP; ATP-dependent Clp protease proteolytic subunit (Bacillus subtilis (strain 168)), P80244; purified B. subtilis ClpP, FRET peptide cleavage, 20 min; Potency, µM (series often up to 57.5 µM), for the others: top-dose activity change, negative = active; hit rate 1.9% among 340,000; active = well fitted falling curve with a large enough effect; inconclusive = small, poorly fitted or top-dose-only effect; inactive = no such curve, though single readings can be large or run the other way; also: potency is read from the fitted curve at half-maximal effect; the source files actives as falling curves though it sought activators and does not explain the sign; nearly all actives have a fitted effect of over 65% in size; many hits overshoot -100%
Target sequence (P80244 whole entry, looked up): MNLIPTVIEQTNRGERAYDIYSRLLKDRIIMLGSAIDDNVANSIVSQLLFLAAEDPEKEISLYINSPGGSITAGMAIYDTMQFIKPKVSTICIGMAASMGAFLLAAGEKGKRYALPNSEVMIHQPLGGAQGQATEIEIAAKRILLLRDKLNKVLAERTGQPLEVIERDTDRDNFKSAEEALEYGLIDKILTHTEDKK
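Purified B. subtilis ClpP, 10 microg/mL final in Tris/HCl pH8 with KCl, BSA, glycerol and Tween-20, cleaved an Abz/nitrotyrosine-quenched decapeptide. Fluorescence (ex 320, em 430) was read at 0 and 20 min at room temperature. Delta was normalized to 5.8 microM ADEP and DMSO/no-enzyme controls.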
Menin-MLL FL inh: qHTS Assay for Inhibitors Targeting the Menin-MLL Interaction in MLL Related Leukemias: Competition With Fluorescein Labeled MLL-derived Peptide | Fluorescence polarization, fluorescein-MLL peptide displacement from menin | AID 1766, 2009 | 290,000 tested, under 10 active | FP activity change, % at 61.4 µM; inconclusive = falling polarisation curve, or a change in total fluorescence; inactive = total fluorescence flat and polarisation flat or rising; no compound was filed as active; the % refers to the polarisation; negative = inhibition;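 also: % of control where 0% means no effect; inhibitors lower the polarisation; unlabelled MLL peptide was the positive control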
TRPV1 potentiator: HTS Assay for Compounds that Act as Potentiators of the Vanilloid Receptor 1; AID 540277, 2011; TRPV1-expressing cells, Fluo-8 calcium influx, capsaicin EC20 potentiation; host cell line not named in the record; control for the full effect not named in the record; Transient receptor potential cation channel subfamily V member 1 (Homo sapiens), Q8NER1; hit rate 0.02% among 320,000; potentiation, % at 8.33 µM; active means potentiation above 80%; inconclusive means 30% to 80%; inactive means below 30%; also: 0% is about no effect
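TRPV1-expressing cells were cultured overnight at 35.5C and loaded with Fluo-8 calcium dye for 40 to 90 min at room temperature. After a 10 s baseline, compound was added and calcium influx was read kinetically for 3 min (ex 480/em 520 nm).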
TRPML1 blocker: qHTS for Inhibitors of the Human Mucolipin Transient Receptor Potential 1 (TRPML1) | hit rate 0.02% among 390,000 | activity change, negative = inhibition, % (test concentration not listed) | TRPML1-inducible cells, Ca2+ dye fluorescence, FDSS; active compounds read low; inhibition of EC80 agonist-evoked calcium signal; in the data active means activity change below about -50%; inconclusive means about -30% to -50%; inactive means above about -30%;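 also: stimulus is agonist 54-4 at its EC80 concentration; % is scaled to controls: 0 for no effect and ±100 for the full control effect; compound concentration not given in the record; the text of the record puts the active cut at -80%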
Target sequence (Q9GZU1 whole entry, looked up): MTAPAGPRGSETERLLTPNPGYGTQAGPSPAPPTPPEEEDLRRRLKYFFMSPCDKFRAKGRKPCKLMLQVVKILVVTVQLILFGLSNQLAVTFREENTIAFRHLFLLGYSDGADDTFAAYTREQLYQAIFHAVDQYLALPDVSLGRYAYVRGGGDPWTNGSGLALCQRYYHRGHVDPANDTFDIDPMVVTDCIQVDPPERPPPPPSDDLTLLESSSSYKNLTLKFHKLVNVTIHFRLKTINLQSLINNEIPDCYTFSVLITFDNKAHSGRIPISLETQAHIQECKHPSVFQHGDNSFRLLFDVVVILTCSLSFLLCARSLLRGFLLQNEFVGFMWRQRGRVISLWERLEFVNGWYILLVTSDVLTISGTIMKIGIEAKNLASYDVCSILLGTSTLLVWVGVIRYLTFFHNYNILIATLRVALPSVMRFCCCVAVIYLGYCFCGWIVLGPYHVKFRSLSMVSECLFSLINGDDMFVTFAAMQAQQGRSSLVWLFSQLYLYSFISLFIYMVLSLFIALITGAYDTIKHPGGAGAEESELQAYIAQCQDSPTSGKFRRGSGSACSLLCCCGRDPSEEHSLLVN
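Tet-induced TRPML1-DL cells loaded with Ca8 no-wash calcium dye were read kinetically on FDSS. Compound addition was followed by EC80 agonist 54-4 (4 uM final); inhibition was read over 110 s.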
Sfp inh: qHTS Assay for Inhibitors of Bacillus subtilis Sfp phosphopantetheinyl transferase (PPTase); AID 1490, 2009; Potency, µM, without a hit: max response, negative = inhibition, actives largely listed as inhibitors; hit rate 3.5% among 310,000; Biochemical Sfp PPTase activity, qHTS; 4'-phosphopantetheinyl transferase ffp (Bacillus subtilis), Q9F4F7; active = well fitted inhibition curve with a large enough effect; inconclusive = small, poorly fitted or top-dose-only effect, or another doubt; inactive = no such curve, though single readings can be large or run the other way;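 also: the enzyme is Sfp with the accession as filed and its product quenches rhodamine fluorescence; potency is read from the fitted curve at half-maximal effect; 0% = enzyme reaction without inhibitor and -100% = no enzyme wells; top concentration of the series not given in the record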
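Sfp 15 nM + cpd, 15 min RT; start w/ rhodamine-CoA 5 uM, BHQ-2-YbbR 12.5 uM (final); 50 mM Hepes pH 7.6, 10 mM MgCl2, 0.01% NP-40, 0.01% BSA; read 525/598 nm at 0 and 30 min.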
gsp antag: qHTS for Antagonists of gsp, the Etiologic Mutation Responsible for Fibrous Dysplasia/McCune-Albright Syndrome: qHTS; Potency, µM (series often up to 76.9 µM), for the others: at the highest dose activity change, negative = inhibition, hits mostly inhibitors; hit rate 0.4% among 340,000; gsp-mutant cells, cAMP HTRF, 30 min; control for the full effect not named in the record; active = falling curve of any shape with a large fitted effect; inconclusive = falling curve, mostly with a smaller effect; inactive = flat or rising curve; cell line not stated here;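 also: intracellular cAMP measured with PDE inhibitor Ro 20-1724 present during compound exposure; potency is read from the fitted curve at half-maximal effect; % is scaled to controls: 0 for no effect and ±100 for the full control effect; nearly all actives have a fitted effect of over 65% in size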
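HTRF cAMP read-out (cAMP-d2 plus anti-cAMP antibody-K in lysis buffer, 30 min RT). Before lysis, cells are exposed to compounds with […] for 30 min at 37C in DPBS containing Ca/Mg, BSA and Tween 20.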
Numbers without * were called inactive; ? = inconclusive; · = not tested or not shown; [ ] = remark or other dose.

Values run as follows: gsp agonist, ClpP mod, Menin-MLL FL inh, TRPV1 potentiator, TRPML1 blocker, Sfp inh, gsp antag
CC(=O)Nc1ccc(N(C(=O)c2ccco2)C(C(=O)NC2CCCCC2)c2ccccc2)cc1 (centres undefined)
    -1%[15.4 µM], -7.6%, -6.7, -10, 9, 8%, 0%
CC1(C)C(=O)OC(c2cc(Br)ccc2O)C(C)(C)C1=O (centres undefined)
    14%, -3.5%, 0.9, 0, 9, 2%, ?
COC(=O)c1ccc(NC(=O)CSc2nn3c(=O)c(C)nnc3s2)cc1
    1%, -0.8%, 1.5, -6, 0, -3%, 4%
O=C(O)CC/C(=C\c1cc([N+](=O)[O-])ccc1Cl)c1nc2ccccc2s1
    18%, -2.0%, ·, -6, 30, 3%, -11%
O=C(Nc1ccc(/C=C/c2nc3ccccc3o2)cc1)c1c(F)cccc1F
    ?, ?, 11, 5, -15, 0%, -4%
COc1ccc(C(=O)NCC2(c3ccccc3)CCOCC2)cc1[N+](=O)[O-]
    5%, -0.7%, 0.7, -7, -6, 16%, -15%
O=C(Nc1ccc(O)c2c(=O)cc(-c3cccc(Cl)c3)oc12)c1ccc(F)cc1
    -33%[inhibitor], -2.2%, 3.4, 26, 11, 14%, -7%
O=C(NC(=S)NCCC1=CCCCC1)c1cncc(Br)c1
    -19%, 3.3%, -0.2, -1, -10, -4%, 0%
COc1ccccc1C(CNC(=O)CCNC(=O)c1ccccc1Cl)N1CCCC1 (centres undefined)
    41%[15.4 µM], ·, ·, 8, 42, ·, 6%
CSc1ccccc1NC(=O)COC(=O)CCCOc1ccc(C)cc1
    -7%, -1.9%, ·, -9, 2, ·, 9%
O=C(CCc1nnc2ccc(NCc3ccco3)nn12)Nc1ccc(F)cc1
    -45%[inhibitor], -4.0%, ·, 7, -10, 2%, -1%
CC(C)(C)NC(=O)NC(=O)CN1CCCc2ccccc21
    15%[15.4 µM], ·, -0.3, -3, -5, -3%, 5%
Cc1cc(C(=O)NN=C(Cc2ccccc2)Cc2ccccc2)c(C)o1
    -19%, -2.5%, -2.6, -15, 17, 19%, -1%
Cc1cc(-c2ccc3ccccc3c2)n2ncnc2n1
    4%, 4.6%, 2.4, -3, 0, 14%, 18%
COc1ccc(C(=O)OCC(=O)Nc2cccc(C(C)=O)c2)c(OC)c1OC
    -36%[inhibitor], ·, -0.4, 4, -21, 12%, ?
Cc1nn(CC(=O)NC2CCC(C)CC2)c(=O)c(C#N)c1C (centres undefined)
    -13%[15.4 µM], ·, ·, -1, 12, ·, 7%
CCn1c(=O)c2cc(C(=O)N3CCOCC3)sc2c2ccccc21
    10%, 3.8%, -0.8, -5, 4, 9%, 10%
COc1ccc(C(=O)N2CCN(Cc3ccccc3)CC2)cc1[N+](=O)[O-]
    -27%, -0.5%, 5.2, -7, ·, 9%, 1%
O=C(CSc1nnc(SCc2ccc(Cl)cc2)s1)c1ccc2c(c1)OCO2
    -1%, -0.5%, -1.3, 9, -9, 10%, -19%
CC/C(=C\c1ccc(Cl)cc1)c1ccncc1
    -72%[inhibitor], -2.5%, ·, ·, 28, ·, 1%
O=C(Cn1cnc2sc3c(c2c1=O)CCCC3)NCC(=O)Nc1c(F)cc(F)cc1Br
    23%, 0.5%, ·, 13, 1, -19%, 17%
COc1ccccc1C(c1nnnn1C1CCCC1)N1CCN2CCCC2C1 (centres undefined)
    3%, 1.6%, -2.3, -6, -17, 12%, 7%
CCC(CO)Oc1cc(NC(=O)c2ccc(Cl)cc2)c2ncn(C(C)C)c2c1 (centres undefined)
    3%, 4.1%, ·, ·, 14, ·, 10%
CN(C(=O)Cn1cc([N+](=O)[O-])ccc1=O)C1CCCCC1
    -4%, 0.0%, ·, 2, 37, ·, 13%
CC(=O)c1cccc(NC(=O)c2cc(C)nn2-c2ccccc2)c1
    -6%[15.4 µM], -0.4%, 1.8, -16, 4, 8%, 9%
CCOC(=O)C1=C(C)C(c2ccccc2OC)NC(=O)N1 (centres undefined)
    -21%, 1.7%, 1.2, 10, 3, -7%, 16%
Cc1ccc2c(c1)N(CC(=O)NC1CCCC1)C(=O)CO2
    -23%[15.4 µM], ·, 5.3, 8, -5, 10%, 7%
Cc1cc(NC(=O)CSc2ccc3nnc(-c4cccs4)n3n2)no1
    11µM*, -0.7%, 1.0, ·, 10, -12%, 13%
Cc1ccc(NS(=O)(=O)c2cc(C(=O)N3CCOCC3)ccc2C)cc1C
    14%, -2.6%, 7.7, -1, -7, 4%, -6%
CC(=O)Nc1cccc(C(=O)/C=C/c2ccc(Br)cc2)c1
    -2%[15.4 µM], -4.5%, -0.9, -14, 6, ?, 10%

Three entries out of the list, sorted by length of the SMILES, falling:
Values run as follows: gsp agonist, ClpP mod, Menin-MLL FL inh, TRPV1 potentiator, TRPML1 blocker, Sfp inh, gsp antag
COc1ccc(C(=O)N2CCN(Cc3ccccc3)CC2)cc1[N+](=O)[O-]
    -27%, -0.5%, 5.2, -7, ·, 9%, 1%
CN(C(=O)Cn1cc([N+](=O)[O-])ccc1=O)C1CCCCC1
    -4%, 0.0%, ·, 2, 37, ·, 13%
CC(=O)c1cccc(NC(=O)c2cc(C)nn2-c2ccccc2)c1
    -6%[15.4 µM], -0.4%, 1.8, -16, 4, 8%, 9%

(next part)
Values run as follows: gsp agonist, ClpP mod, Menin-MLL FL inh, TRPV1 potentiator, TRPML1 blocker, Sfp inh, gsp antag
Cc1ccnc(NS(=O)(=O)c2ccc(NS(=O)(=O)c3ccc([N+](=O)[O-])cc3)cc2)n1
    -8%[15.4 µM], ·, ·, 1, 7, -2%, 12%
Cc1cc(C)n2nc(-c3ccco3)nc2n1
    -2%[15.4 µM], -2.9%, 0.5, 8, 13, 16%, -3%
CC(Sc1nc(N2CCOCC2)c2c(c1C#N)CC(C)(C)OC2)C(=O)O (centres undefined)
    27%, ·, -2.2, -4, -12, -16%, -7%
COc1ccc(CCNC(=O)COC(=O)/C=C/c2ccc(OCC#N)c(OC)c2)cc1
    -39%[inhibitor], -3.0%, 7.7, 4, 0, 31%, -3%
CC1(C)CC(NC(=O)c2cccc(Cl)c2)CC(C)(C)N1
    -7%[15.4 µM], 0.6%, 1.6, -1, -5, 11%, 14%
CCOc1cc(C2C3=C(CC(C)(C)CC3=O)OC3=C2C(=O)CC(C)(C)C3)cc([N+](=O)[O-])c1O
    4%[15.4 µM], ·, 0.0, -1, 3, 19%, ·
CC(C)(C)NC(=O)C(c1cccnc1)N(C(=O)c1ccc(Cl)nc1)C1CCCC1 (centres undefined)
    -2%[15.4 µM], -0.3%, -3.3, -1, -28, 3.5µM*, 0%
COc1ccc(CN(Cc2ccccn2)C(=O)CN2C(=O)COc3ccccc32)cc1
    -6%, -1.2%, 3.0, -5, 65, 16%, -7%
N/C(COc1cccc(Cl)c1)=N\NS(=O)(=O)c1ccccc1
    7%, 0.0%, 1.0, 0, -8, 12%, 10%
COc1ccccc1NS(=O)(=O)c1ccc(C)c(NC(=O)C2CCCO2)c1 (centres undefined)
    19%, 1.8%, ·, -1, 4, ·, -1%
Cc1ccc(C)c(S(=O)(=O)C(C#N)c2nc3ccccc3nc2N2CCOCC2)c1 (centres undefined)
    22%, -3.1%, 4.9, 7, 0, -8%, 25µM*
COc1ccc(C)cc1NC(=O)CN1c2cccc3cccc(c23)S1(=O)=O
    32%, -21%, ·, -18, -9, ·, -2%
CC(=O)c1cccc(Nc2cc(C)nc3ccc(C)cc23)c1
    -2%[15.4 µM], -2.6%, -0.3, -5, 4, -10%, 5%
COc1ccc(NC(=O)CSCCc2ccccn2)cc1OC
    8%, ·, -0.8, 1, -22, -4%, 7%
O=C(Nc1cc(C2CC2)nn1-c1ccccc1)c1ccc(F)cc1
    -8%, -1.3%, ·, ·, -6, ·, -2%
CCOc1ccc(C(=O)Nc2c(C(=O)N3CCC(N4CCCCC4)CC3)oc3ccccc23)cc1
    6%, -7.4%, ·, 10, 1, 15%, 5%
Cc1ccc(NC(=O)CCCCCNS(=O)(=O)c2ccc(C)cc2)cc1
    -7%, -1.2%, 6.9, 2, 17, 13%, 5%
O=c1c2ccccc2[nH]c(=S)n1Cc1ccccc1
    -24%, ·, 1.3, -7, 9, 5%, 10%
CCc1ccc(NC(=O)CSc2nnnn2-c2cccnc2)cc1
    -6%, -2.6%, 1.0, -3, -24, -3%, 0%
CCN1CCCc2cc(CN(CCN3CCOCC3)C(=S)Nc3cccc(C)c3)ccc21
    -12%[15.4 µM], ·, 1.0, 3, 49, 15%, ?
COC(=O)/C=C/c1ccccc1CN1[C@@H](CC(=O)OC)c2ccccc2S1(=O)=O
    -23%, 1.1%, ·, -11, 15, ·, -6%
N#Cc1nc(-c2ccco2)oc1NCc1ccc(F)cc1
    -38%[inhibitor], 8.9µM*, -1.8, -19, -6, 9%, -5%
CCCCC(=O)N(Cc1nc2sc(C)c(C)c2c(=O)[nH]1)C1CCCC1
    5%[15.4 µM], ·, 4.8, -9, 20, -15%, -22%
COc1ccc(S(=O)(=O)N2CCCCC2)cc1NC(=O)Cn1cnc2c1c(=O)n(C)c(=O)n2C
    14%[15.4 µM], -0.8%, ·, ·, 24, ·, 6%
Cc1ccnc(SCC(=O)N2CCc3ccccc32)n1
    ?, ·, ·, 1, 3, 14%, -1%
CC1=NN(c2ccccc2)C(c2ccco2)C1 (centres undefined)
    30%, ·, ·, ·, -12, ·, 9%
Cc1noc(C)c1NC(=O)N(C)C[C@@H]1Oc2ncc(Br)cc2C(=O)N([C@@H](C)CO)C[C@@H]1C
    -27%, -2.0%, ·, ·, 23, ·, ·
